StopGo FLuc – FMDV 2A StopGo reporter, firefly signal | HEK cells with a luciferase reporter of 2A StopGo recoding | Potency, µM (top dose mostly 57.5 µM), for inactives: at the highest dose signal change, negative = less light | 120,000 tested, 0.23% active | AID 1745856; active = well fitted falling curve with a large enough effect; inconclusive = small, poorly fitted or top-dose-only effect; inactive = no such curve, though single readings can be large or run the other way; further: nearly all actives have a fitted effect of over 60% in size; overnight with compound
2A Renilla – lowers the Renilla signal of an FMDV 2A StopGo reporter. HEK cells with a luciferase reporter of 2A StopGo recoding. Potency, µM (titrated, usually from 57.5 µM), for inactives: at the top dose signal change, negative = less light. 120,000 tested, 0.32% active; active means well fitted falling curve with a large enough effect; inconclusive means small, poorly fitted or top-dose-only effect; inactive means no such curve, though single readings can be large or run the other way; further: nearly all actives have a fitted effect of over 55% in size; overnight with compound
* marks the source's active call; other numbers are inactive results; ? = inconclusive; [ ] = another dose, or the depositor's remark. On the % scale 0 is the no-effect control and ±100 the full control effect; potency means the concentration at half of the fitted maximal effect.

Start of the data: the first six records as a preview:
SMILES	StopGo FLuc	2A Renilla
COc1ccc(-c2nc(SCC(=O)NCc3ccccc3Cl)n[nH]2)cc1	-7%	-3%
CCOc1ccc(NC(=O)C2CCN(S(=O)(=O)c3c(C)noc3/C=C/c3cccs3)CC2)cc1	-8%	-13%
COC(=O)c1ccc(NC(=O)CC2C(=O)N(c3cccc(OC)c3)C(=O)N2Cc2ccco2)cc1 (stereo not given)	-18%	33%[activator]
O=C1Cc2cc(C(=O)CSc3nnc(-c4cccc(F)c4)o3)c(Cl)cc2N1	-5%	-12%
COc1ccc(CCNC(=O)c2cc3c(=O)[nH]c4ccc(C)cc4c3s2)cc1OC	-3%	-7%
Nc1cccc(-c2ccn[nH]2)c1	0%	14%

Results (from the top)
SMILES	StopGo FLuc	2A Renilla
COc1ccc(-c2nc(SCC(=O)NCc3ccccc3Cl)n[nH]2)cc1	-7%	-3%
CCOc1ccc(NC(=O)C2CCN(S(=O)(=O)c3c(C)noc3/C=C/c3cccs3)CC2)cc1	-8%	-13%
COC(=O)c1ccc(NC(=O)CC2C(=O)N(c3cccc(OC)c3)C(=O)N2Cc2ccco2)cc1 (stereo not given)	-18%	33%[activator]
O=C1Cc2cc(C(=O)CSc3nnc(-c4cccc(F)c4)o3)c(Cl)cc2N1	-5%	-12%
COc1ccc(CCNC(=O)c2cc3c(=O)[nH]c4ccc(C)cc4c3s2)cc1OC	-3%	-7%
Nc1cccc(-c2ccn[nH]2)c1	0%	14%
O=C(CN1C(=O)NC2(CCCCC2)C1=O)Oc1ccc2c(C(F)(F)F)cc(=O)oc2c1	-2%	-15%
Cc1ccc(-c2nc3nc(C)cc(N4CCN(c5cc(Cl)ccc5C)CC4)n3n2)cc1	36%[activator]	2%
CC1C(O)CCN(C)C1C (stereo not given)	-7%	10%
COc1ccc(-c2nc3scc(CCNS(=O)(=O)c4ccc(NC(C)=O)cc4)n3n2)cc1	-16%	55%[activator]
Cc1sc2ncnc(N3CCCCC3)c2c1-c1ccc(Cl)cc1	-4%	-11%
CC(C)Cn1c(=O)c2sccc2n2c(CCCC(=O)N3CCN(c4ccc(F)cc4)CC3)nnc12	-26%	-26%
COc1ccccc1-n1[nH]c(CSc2nnnn2-c2ccccc2)cc1=O	6%	0%
O=C1CCSc2ccc(S(=O)(=O)NC3CCN(Cc4ccccc4)CC3)cc2N1	8%	9%
O=C(O)c1c(Cl)ccc(Cl)c1Cl	11%	5%
CCCC12CC3CC(CC(N)(C3)C1)C2	4%	4%
CCC1=Nc2cc(C(=O)N3CCC(C)CC3)ccc2Sc2ccc(C)cc21	-10%	3%
COc1ccc(C(=O)OCCCN(C)C2CN(Cc3cn(Cc4cccc(F)c4)nn3)S(=O)(=O)C2)cc1OC (stereo not given)	104%[activator]	15%
Cc1ccc(C)c(N2CCN(S(=O)(=O)c3ccc(C4CCCCC4)cc3)CC2)c1	11%	11%
COCCNC(=O)CCc1ncc(-c2ccc(Cl)cc2Cl)o1	13%	-11%
O=C(O)Cn1cc(C(C(=O)O)N2CCN(Cc3ccncc3)CC2)c2cc(Br)ccc21 (stereo not given)	4%	-3%
CCCCC12CN3CC(C)(CN(C1)C3c1c(C)[nH]c(=O)[nH]c1=O)C2=O (stereo not given)	-9%	-7%
c1ccc2cc(OCCSc3ccc4ccccc4n3)ccc2c1	0%	12%
COC(=O)C1=C(C)NC(=O)CC1c1cccc(Cl)c1Cl (stereo not given)	-8%	-1%
COc1ccc(-c2ocnc2C(=O)Nc2cccc(Cl)c2C)cc1	1%	-6%

Profiles, looked up by structure:
`CCCCC12CN3CC(C)(CN(C1)C3c1c(C)[nH]c(=O)[nH]c1=O)C2=O` (stereo not given) in the list: StopGo FLuc: -9%; 2A Renilla: -7%
`COc1ccc(C(=O)OCCCN(C)C2CN(Cc3cn(Cc4cccc(F)c4)nn3)S(=O)(=O)C2)cc1OC` (stereo not given) in the list: StopGo FLuc: 104%[activator]; 2A Renilla: 15%

Ordered by molar mass (low to high): part of the list above
SMILES	StopGo FLuc	2A Renilla
Cc1sc2ncnc(N3CCCCC3)c2c1-c1ccc(Cl)cc1	-4%	-11%
CCC1=Nc2cc(C(=O)N3CCC(C)CC3)ccc2Sc2ccc(C)cc21	-10%	3%
O=C1Cc2cc(C(=O)CSc3nnc(-c4cccc(F)c4)o3)c(Cl)cc2N1	-5%	-12%
COC(=O)c1ccc(NC(=O)CC2C(=O)N(c3cccc(OC)c3)C(=O)N2Cc2ccco2)cc1 (stereo not given)	-18%	33%[activator]
COc1ccc(C(=O)OCCCN(C)C2CN(Cc3cn(Cc4cccc(F)c4)nn3)S(=O)(=O)C2)cc1OC (stereo not given)	104%[activator]	15%

Further compounds:
SMILES	StopGo FLuc	2A Renilla
Cc1nnc(Cn2c(=O)c(C#N)cn(C3CC3)c2=O)o1	18%	1%
Cc1ccc(Cl)cc1NC(=O)NCc1cccn1Cc1ccc(F)cc1	-6%	-9%
CC(C)(C)c1ccc(C(=O)N(Cc2ccc(F)cc2)Cc2ccco2)cc1	0%	63%[activator]
CC(=O)NC(C)c1cccc([N+](=O)[O-])c1 (stereo not given)	36%	26%
COc1ccc(N2CCN(S(=O)(=O)c3c(C)[nH]c(=O)[nH]c3=O)CC2)cc1	-7%	-6%
Cc1nnc(SCc2coc(-c3cccc(F)c3)n2)n1C	158%[activator]	3%
COc1ccc(CN(C(=O)Cc2cccc(C(F)(F)F)c2)C2CC2)cc1	-1%	1%
Cc1ccn2c(=O)c(NC(=O)c3cccc([N+](=O)[O-])c3C)c(C)nc2c1	5%	7%
CCCCN1CCN(c2nc3c(c(=O)[nH]c(=O)n3C)n2Cc2ccccc2F)CC1	1%	3%
Cc1cc(C)nc(NS(=O)(=O)c2ccc(NC(=O)COc3ccc(Cl)cc3C)cc2)n1	1%	66%[activator]
CCOC(=O)C1=C(C)N(C2CC2)C(=O)NC1c1ccccc1OC(F)F (stereo not given)	6%	-7%
O=C(Nc1ccccc1)C1=C(c2ccccc2)S(=O)(=O)CCO1	?	?
Cc1cccc(NC(=O)c2cccc3ncccc23)n1	51%[activator]	0%
CCOC(=O)c1ccc(NC(=O)c2ccc(-c3cccc(Cl)c3C)o2)cc1	-1%	15%
CCNC(=O)NC(=O)COC(=O)c1csc(NCc2ccccc2)n1	-2%	-10%
Cc1ccc(S(=O)(=O)Oc2ccc3c(C)cc(=O)oc3c2)cc1C	2%	46%[activator]
O=C(CCc1cccnc1)NCC12CC3CC(CC(C3)C1)C2	8%	-13%[1.06 µM]
CCC(=O)Nc1ccc2c(c1)nc(Cn1cccn1)n2CC(C)C	38%	25%
CN(C)c1cccc(C(=O)N/N=C/c2ccc(Cl)s2)c1	249%[activator]	50%[activator]
O=C(Nc1cccc(Cl)c1Cl)c1cc(S(=O)(=O)NCc2ccc3c(c2)OCO3)ccc1F	-15%	-6%
Cc1ccc2c(c1)sc1nc(=O)n(-c3ccc(Cl)c(Cl)c3)c(=O)n12	-14%	-13%
O=C(c1ccc(F)cc1)N(Cc1ccco1)C1CC1	7%	3%
CCCn1c(=O)[nH]c(=O)c2c1nc(-c1ccc(C)cc1)n2CCN1CCOCC1	5%	-5%
CCOC(=O)c1ccc(N2C(=O)c3n[nH]c(C)c3C2c2ccc(C(C)(C)C)cc2)cc1 (stereo not given)	-17%	-10%
CC(C)(C)NC(=O)c1cc(-c2ccc(Cl)cc2)nc2ccccc12	10%	1%
SMILES	StopGo FLuc	2A Renilla
COc1ccc(N2CC3=C(C2=O)C(c2ccc(Br)cc2)NC(=O)N3C)cc1 (stereo not given)	-22%	-13%
COc1cc(C(=O)N2CCC(CC(=O)NCCN3CCOCC3)CC2)cc(OC)c1OC	4%	-3%
N#Cc1ccccc1COC(=O)c1ccc(-c2ccc(C=O)o2)cc1	95%[activator]	22%
Cc1cc(=O)n2c(n1)NC(Nc1ccc(F)cc1)=NC2c1ccco1 (stereo not given)	2%	-16%
COc1ccc(-c2coc3cc(OCC(=O)NCc4ccccc4Cl)ccc3c2=O)cc1OC	-2%	-3%
CCONC(=O)c1cccc(NC(=O)c2cccs2)c1	14%	72%[activator]
Cc1cccc(-n2nc(C)c(C(=O)N(C)Cc3ccccc3)c2-n2cccc2)c1	?	2%
COc1ccc(CN(CCC(c2ccc3c(c2)OCO3)c2ccccc2OC)C(C)=O)cc1 (stereo not given)	0%	43%[activator]
O=C(Oc1ccc(-c2ccccc2)cc1)C(c1ccccc1)c1ccccc1	17%	0%
COc1ccc(-n2c(SCC(=O)c3ccccc3)nc3c([nH]c4ccccc43)c2=O)cc1	2%	-9%
CCC(=O)C1=C(c2ccc3c(c2)CCCC3)N(C(=O)CC)n2cnnc2S1	8%	?
COc1ccc(OC)c(Nc2nc3ccccc3n3c(C)nnc23)c1	-8%	-9%
Cc1ccc(OCc2nc(C#N)c(NCc3cccnc3)o2)c(C)c1	0%	11%
Cc1ccc(NC(=O)C2CC3CCC2C3)c(C)c1 (stereo not given)	114%[activator]	-1%
COC(=O)c1c(NC(=O)CSc2nc3ccc(C)cc3[nH]2)sc2c1CCC2	16%	26%
COc1ccc(N(C(=O)COc2ccccc2OC)S(=O)(=O)c2ccc(Cl)cc2)cc1	?	124%[activator]
COC(=O)C(C)Oc1ccc2c(=O)c(-c3ccc(Cl)cc3)coc2c1 (stereo not given)	32%[activator]	-23%
COc1cc(C)cc2oc(=O)c(CC(=O)NCCCOC(C)C)c(C)c12	0%	-5%
CC(C)C[C@H](NC(=O)CNC(=O)[C@H](Cc1ccc(O)cc1)NC(=O)[C@H](CO)NC(=O)[C@H](Cc1c[nH]c2ccccc12)NC(=O)[C@H](Cc1cnc[nH]1)NC(=O)[C@@H]1CCC(=O)N1)C(=O)N[C@@H](CCCN=C(N)N)C(=O)N1CCC[C@H]1C(=O)NCC(N)=O (stereo in doubt)	-14%[11.5 µM]	-17%
CCN(Cc1nc2cc(Cl)ccc2c(=O)[nH]1)C(=O)CNC(=O)c1cccc(C)c1	8%	4%
Cc1ccc(Cn2cc(CCC(=O)NC3CCCCC3)c3ccccc32)cc1	-9%	-7%
CCNCc1ccc(-c2ccc(C(=O)OC)cc2)o1	46%[activator]	-2%
COc1ccc2c(Cl)c(C(=O)OCC(=O)Nc3ccccc3F)sc2c1Cl	0%	-4%
O=c1nc2n(-c3ccccc3F)c3ccccc3cc-2c(=O)[nH]1	-15%	-11%
CCC(C)c1ccc(-c2csc(NC(=O)C3CCN(C(=O)c4ccoc4)CC3)n2)cc1 (stereo not given)	?	?
SMILES	StopGo FLuc	2A Renilla
O=C(Nc1cnc2ccccc2c1)c1ccccc1Cl	-58%	0%
CNC(NC(=O)c1ccc(F)cc1)C(Cl)(Cl)Cl (stereo not given)	2%	2%
CC(OC(=O)c1ccc(CS(C)(=O)=O)cc1)C(=O)c1ccc(Cl)cc1 (stereo not given)	-5%	-1%
O=C(NCCC1=CCCCC1)c1ccc2c(c1)N(Cc1cccc(Cl)c1)C(=O)c1ccccc1S2=O (stereo not given)	19%	-12%
COc1ccc2cc(C(=O)NCC(=O)Nc3c(C)cc(C)cc3C)c(C)nc2c1	21%	3%
Cc1noc(/C=C/c2ccccc2F)c1S(=O)(=O)N1CCC(C(=O)N(C)Cc2ccco2)CC1	-7%	-1%
CCC(C)C(=O)OC(C(=O)NC(N)=O)C(C)C (stereo not given)	2%	6%
Cc1noc(C)c1S(=O)(=O)N(C)CC(=O)Nc1ccc(C(C)(C)C)cc1	30%[activator]	-15%
BrCCC1CCCCN1 (stereo not given)	0%	14%
O=C(CN1CCCN(S(=O)(=O)c2ccc(Br)cc2)CC1)Nc1cccc(C(F)(F)F)c1	-20%	-11%
CCN(Cc1coc(-c2cccc(F)c2)n1)C(C)COC (stereo not given)	19%	-2%
COc1ccc(NC(=O)Nc2nnc(N3CCCCCC3)s2)c(OC)c1	8%	-7%
Cc1ccccc1NC(=O)c1ccc2c(Cl)c3c(nc2c1)CCCC3	157%[activator]	-14%
COc1ccc(OC)c(CNC(=O)C2CCN(c3ncnc4c3nc3n4CCCCC3)CC2)c1	-8%	-5%
O=C(Nc1ccc2oc(-c3ccc(F)cc3)nc2c1)c1ccccc1Cl	123%[activator]	29%
N[C@@H](Cc1ccc(Oc2cc(I)c(O)c(I)c2)c(I)c1)C(=O)O	-15%	-13%
CCc1ccccc1NC(=O)CCNS(=O)(=O)c1ccc2c(c1)CCN2C(=O)C1CC1	-10%	2%
CN(Cc1ccccc1)C(=O)Cn1ncc2c3ccccc3n(Cc3cccc(Cl)c3)c2c1=O	-8%	-4%
CC1=C(C(=O)OC2CCCC2)C(c2c(Cl)cccc2Cl)CC(=O)N1 (stereo not given)	-29%	-11%
COc1ccccc1CNC(=O)C1=C(c2ccccc2)c2cc(Cl)ccc2S(=O)(=O)N1C	2%	43%[activator]
Cc1ccc2c(=O)n(-c3cccc(Cl)c3)c(=O)[nH]c2c1	0%	1%
CCCN(c1ccc(C(C)C)cc1)S(=O)(=O)c1ccc2c(c1)CCN2C(=O)CC	17%	39%[activator]
O=C(NCCn1cc(SCc2ccccc2F)c2ccccc21)c1cccs1	-24%	?
Cc1ccc(NC(=O)CN(C)C(=O)c2ccc3c(c2)nnn3C2CCCC2)cc1	31%	67%[activator]
Cc1ccc2nc(C)cc(C(=O)O)c2c1	6%	9%
CCOC(=O)COc1ccc2c(=O)c(-c3ccc(Cl)cc3)c(C)oc2c1	-9%	-10%

Compound activity: PubChem, National Center for Advancing Translational Sciences (NCATS)

Rows were taken by chance; overall some 0.53% were active at least once.
